RecA splice inh: blocks M. tuberculosis RecA intein splicing; P9WHJ3; cell-free RecA intein splicing, fluorescence; inhibition, %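 (about 9 µM by stock and volumes)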; 0.75% of 290,000 active; AID 2221; in the data active means inhibition above about 30%; inconclusive means no clear call, values can overlap the other calls;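 further: 0% = vehicle wells and 100% = reference inhibitor control wells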
Target sequence (P9WHJ3 whole entry, looked up, canonical isoform): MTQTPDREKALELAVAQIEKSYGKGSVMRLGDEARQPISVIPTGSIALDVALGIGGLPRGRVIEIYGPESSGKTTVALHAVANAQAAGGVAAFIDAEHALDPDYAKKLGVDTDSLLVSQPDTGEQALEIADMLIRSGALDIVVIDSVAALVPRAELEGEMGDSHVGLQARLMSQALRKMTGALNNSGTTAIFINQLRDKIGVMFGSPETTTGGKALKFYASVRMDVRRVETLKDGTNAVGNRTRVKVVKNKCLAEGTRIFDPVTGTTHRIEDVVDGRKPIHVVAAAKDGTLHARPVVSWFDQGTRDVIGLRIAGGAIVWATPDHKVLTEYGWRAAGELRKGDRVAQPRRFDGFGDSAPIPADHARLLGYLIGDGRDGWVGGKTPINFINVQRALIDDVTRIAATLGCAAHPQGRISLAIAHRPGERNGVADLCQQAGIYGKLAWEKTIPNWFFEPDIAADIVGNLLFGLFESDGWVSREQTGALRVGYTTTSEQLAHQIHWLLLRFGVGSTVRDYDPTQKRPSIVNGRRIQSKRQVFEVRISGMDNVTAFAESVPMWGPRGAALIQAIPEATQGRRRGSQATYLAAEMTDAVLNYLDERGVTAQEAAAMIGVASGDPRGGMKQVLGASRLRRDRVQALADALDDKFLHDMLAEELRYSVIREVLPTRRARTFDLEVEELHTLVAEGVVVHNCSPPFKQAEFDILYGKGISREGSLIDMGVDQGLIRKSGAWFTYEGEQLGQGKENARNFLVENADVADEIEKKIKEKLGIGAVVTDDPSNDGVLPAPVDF
Arbovirus inh: arbovirus infection inhibition; arbovirus infection cell-based antiviral screen; inhibition, % at 10 µM; 0.37% of 200,000 active; AID 1251;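 active means inhibition from about 30%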;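 further: bluetongue infection of BSR cells; cell survival read as ATP light after 72 h; 0% = infected wells without compound and 100% = uninfected wells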
Mtb betalactam: beta-lactam sensitization of Mtb H37Rv; inhibition, % at 25 µM; M. tuberculosis H37Rv growth with meropenem, percent inhibition; hits of this screen are not shown here; 0.27% of 330,000 active; AID 434955;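 active means about 74% or more and at least 40 points above the plate without the antibiotic, then above 30% in a dose series; inconclusive means first-round hits that could not be retested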;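 further: growth measured after seven days incubation then overnight dye step; 0% = bacteria only wells and 100% = bacteria with antibiotic; twin plates without the antibiotic show which effects depend on it; some results filed as inactive read as strong as hits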
YopH inh: inhibitors of Yersinia enterocolitica YopH tyrosine phosphatase | inhibition, %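 (about 10 µM by stock and volumes)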 | AID 898 | fluorescence Ex485/Em525 | 0.16% of 140,000 active;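 active means inhibition of 50% or more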;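 further: controls were vehicle for no effect and minimum signal wells for full effect; inactives centre near -20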
Mtb H37Rv: M. tuberculosis H37Rv growth inhibitors, H37Rv strain (AID 1626); M. tuberculosis H37Rv growth inhibition; higher % means a stronger effect; inhibition, % at 10 µM, or IC50 in µM where a hit was titrated; 0.95% of 220,000 active;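 active means confirmed in a dose series; inconclusive means inhibition above 80% but not taken into the dose series; inactive means below 80% or under 30% at every dose of the series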;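 further: bacteria incubated seven days before Alamar blue readout; 0% = bacteria only wells and 100% = bacteria with antibiotic wells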
Arbovirus inh repeat: second read-out of Arbovirus inh, no call of its own (marks repeat the call); inhibition, %; measured here: 10K subset replicate screen; many hits read low in the repeat;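 first of two repeat runs on a subset; 0% = infected and 100% = uninfected wells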
Starred values were filed as active, the others as inactive; u = inconclusive; x = no result given. This is a subset (hit frequency here may not be typical).

SMILES | RecA splice inh | Arbovirus inh | Mtb betalactam | YopH inh | Mtb H37Rv | others
CN(C)CC(=O)Nc1nc(-c2ccccc2)cs1 | 3.6 | 10 | x | -5 | 8%
O=C(NCc1ccc(Cl)cc1Cl)c1ccc2nc[nH]c2c1 | 0.4 | -7 | 0 | -27 | 6%
COc1ccccc1NC(=O)COc1ccc(C(=O)NC2CCCc3ccccc32)cc1OC (stereo not given) | 1.6 | 0 | 0 | x | 2%
CCOC(=O)C1CCc2sc(N)c(C#N)c21 (stereo not given) | -1.9 | -5 | 0 | -1 | 2%
CN(C)CCCOc1ccc2c(c1)Sc1ccccc1CC2=O | -6.7 | -2 | -9 | -16 | -2%
O=C(Nc1c2c(nn1-c1cccc(Cl)c1)CS(=O)(=O)C2)C1CC1 | 1.1 | x | 2 | x | x
COC(=O)[C@H](Cc1ccccc1)NC(=O)NCc1ccccc1OC | x | -3 | 28 | -5 | -4%
Cc1ccc(CSCc2ccc(C(=O)NC3CC3)o2)cc1 | 0.3 | x | 15 | x | x
CCNc1ccc(C(=O)OCC(=O)c2cc(C)n(Cc3ccc4c(c3)OCO4)c2C)cc1[N+](=O)[O-] | -1.9 | -2 | 0 | -19 | -1%
Fc1ccc(COc2ccc(Cl)cc2/C=N/Nc2nc(N3CCCC3)nc(N3CCCC3)n2)cc1 | 0.8 | -8 | 15 | -13 | 4%
O=C(Nc1cc(Oc2ccccc2)cc([N+](=O)[O-])c1)C12CC3CC(C1)CC(n1cnc(Cl)n1)(C3)C2 | 2.2 | -8 | 95 | -23 | 4.2µM*
Clc1ccc(OCCCN2CCc3ccccc3C2)c(Br)c1 | 8.3 | x | 12 | x | x
CCSc1nnc(NC(=O)c2cc3c(s2)CCCC3)s1 | 0.3 | -1 | 0 | -52 | -1% | Arbovirus inh repeat=1
COCCNC(=O)CN1C(=O)CSc2ccc(S(=O)(=O)N3CCOCC3)cc21 | 2.9 | x | -18 | x | x
Cc1c(C(=O)NC2CCCc3ccccc32)oc2ccc(S(=O)(=O)N3CCOCC3)cc12 (stereo not given) | 1.0 | 0 | 95 | -24 | 4%

Looked up by compound from the list above:
SMILES | RecA splice inh | Arbovirus inh | Mtb betalactam | YopH inh | Mtb H37Rv | others
O=C(NCc1ccc(Cl)cc1Cl)c1ccc2nc[nH]c2c1 | 0.4 | -7 | 0 | -27 | 6%
O=C(Nc1cc(Oc2ccccc2)cc([N+](=O)[O-])c1)C12CC3CC(C1)CC(n1cnc(Cl)n1)(C3)C2 | 2.2 | -8 | 95 | -23 | 4.2µM*
Cc1ccc(CSCc2ccc(C(=O)NC3CC3)o2)cc1 | 0.3 | x | 15 | x | x
Cc1c(C(=O)NC2CCCc3ccccc32)oc2ccc(S(=O)(=O)N3CCOCC3)cc12 (stereo not given) | 1.0 | 0 | 95 | -24 | 4%
CN(C)CCCOc1ccc2c(c1)Sc1ccccc1CC2=O | -6.7 | -2 | -9 | -16 | -2%
CCOC(=O)C1CCc2sc(N)c(C#N)c21 (stereo not given) | -1.9 | -5 | 0 | -1 | 2%
CCSc1nnc(NC(=O)c2cc3c(s2)CCCC3)s1 | 0.3 | -1 | 0 | -52 | -1% | Arbovirus inh repeat=1

Next records
SMILES | RecA splice inh | Arbovirus inh | Mtb betalactam | YopH inh | Mtb H37Rv | others
CC(=O)Nc1ccc(S(=O)(=O)Oc2cccc(/C=C3\SC(N)=NC3=O)c2)cc1 | 0.8 | 6 | 3 | x | 11%
COc1ccccc1N1CCN(C(CNS(=O)(=O)c2ccccc2)c2cccnc2)CC1 (stereo not given) | 2.4 | 7 | -10 | 5 | -1%
O=C(CCCCCN1C(=O)c2ccccc2C1=O)Nc1nccs1 | -1.1 | 4 | -1 | 7 | -11%
CC(C)(C)Cc1nnc(NC(=O)c2ccc([N+](=O)[O-])cc2)s1 | 0.7 | 9 | 0 | -15 | 2%
Cc1ccc(CNC(=O)CCC(=O)n2ncc3cc(C)ccc32)cc1 | 1.5 | x | -4 | x | x
OCC1(CCc2ccccc2)CCN(Cc2cc(F)ccc2-n2cccn2)CC1 | 1.0 | -9 | -7 | x | -6%
O=C(Cn1nc(Cc2cccnc2)c2ccccc2c1=O)NCC1COc2ccccc2O1 (stereo not given) | -2.3 | 1 | u | -32 | 2% | Arbovirus inh repeat=2
Cc1ccc(C(C(=O)NC2CCCCC2)N(Cc2ccco2)C(=O)C2COc3ccccc3O2)o1 (stereo not given) | 3.2 | 0 | -2 | -3 | 6%
Cc1ccc(NC(=O)CN2C(=O)S/C(=C\c3ccccn3)C2=O)cc1 | -1.5 | 7 | -3 | x | -2%
CCOC(=O)/C(=C/Nc1ccccc1)[N+](=O)[O-] | 1.8 | -7 | -12 | -20 | -2%
CC(C)(C)OC(=O)NCCc1nnc(SCC(=O)Nc2cccc(Cl)c2)o1 | -0.9 | 4 | 1 | -8 | -3%
CC1(O)c2ccccc2C(=O)N1CCc1ccccc1F (stereo not given) | 9.1 | -4 | 2 | -32 | 9%
CC(=O)N1CCN(C(=O)c2ccc(OC3CCN(CCc4ccccc4)CC3)cc2)CC1 | 0.0 | x | -5 | x | x
COc1cc(/C=N/n2c(C)n[nH]c2=S)ccc1OCc1ccc(F)cc1 | 1.1 | -1 | 3 | 10 | 9%
CCOC(=O)Cn1cc(/C=C(\C#N)C(=O)N2CCOCC2)c2ccccc21 | -4.0 | x | 0 | x | -4%
NC(=O)COC(=O)c1ccc2noc(-c3ccccc3)c2c1 | 1.0 | x | -4 | x | x
Nc1nonc1-n1nnc(C(=O)N/N=C/c2ccc(F)cc2)c1-c1cccs1 | -0.6 | x | 7 | x | x
O=S(=O)(Cc1ccccc1)Nc1ccc(Br)cn1 | -1.5 | 5 | -1 | x | -3%
S=c1nc(-c2csc3c2CCCC3)[nH][nH]1 | 4.4 | -3 | -2 | x | -4%
O=C(Nc1ccc(S(=O)(=O)N2CCc3ccccc32)cc1)C(F)(F)F | 1.3 | x | 4 | x | x
OCCN(CCO)c1nc(-c2ccccc2)nc2c1oc1ccccc12 | 0.3 | -9 | 4 | x | 1%
CCN(CCCNC(=O)CCCN1C(=O)COc2ccc(C)cc21)c1cccc(C)c1 | 3.1 | -31 | -7 | -8 | 10%
O=C(CC1C(=O)NCCN1Cc1cccc(F)c1)NC1CCCCCC1 (stereo not given) | -0.4 | x | -10 | x | x
CCCc1cc(=O)[nH]c(SCC(=O)NCc2ccc3c(c2)OCO3)n1 | 3.1 | x | -1 | x | x
COc1ccccc1OCC(=O)Nc1ccc(N2CCCCC2)cc1 | -1.9 | -21 | 7 | x | 13%
Cn1c(C(=O)N2CCCC(C(=O)NCc3cccs3)C2)cc2sccc21 (stereo not given) | -0.9 | 3 | -7 | -11 | 0%
CCC(C(=O)NC1CC1)n1nc(C)c2c(C)n(-c3ccccc3)nc2c1=O (stereo not given) | 5.2 | x | -8 | x | x
CC/C(=N\Nc1ccccc1)c1c(O)[nH]c(=O)[nH]c1=O | -2.5 | x | 80 | x | 46%
C=CCN(CC=C)C(=O)c1cccc(S(=O)(=O)N2c3ccccc3CC2C)c1 (stereo not given) | -4.2 | x | -3 | x | -3%
CN(C)/C(=N\S(=O)(=O)c1ccccc1)c1ccc(Cl)cc1 | -1.8 | x | -4 | x | x
COc1ccccc1N1CCN(C(=O)c2ccc3[nH]c(C)c(C)c3c2)CC1 | 1.1 | x | 3 | x | x
CCN1CCN(c2oc(/C=C/c3ccccc3)nc2C#N)CC1 | -10 | x | 1 | x | 3%
Cc1cc2c(C)nc3ccccc3c2o1 | 0.6 | -2 | -8 | -20 | -3%
COc1ccc(C(C)=O)cc1CSc1nnc(-c2ccccc2O)n1-c1ccccc1 | 5.3 | -3 | -1 | -33 | -4%
Cc1c(C(=O)N2CCN(Cc3ccc4c(c3)OCO4)CC2)sc2ncnc(N3CCN(c4ccccc4F)CC3)c12 | 6.6 | x | 57 | x | x
CCn1c(=O)n(CC)c2cc(N3CCCC3)c(NC(=O)c3cccc(C)c3)cc21 | 0.3 | x | 80 | x | x
O=C(C1CCCO1)N1CCC2(CC1)OCCO2 (stereo not given) | -0.2 | 5 | x | -12 | -4%
O=C(NCc1ccco1)C1CCCN1C(=O)NCc1ccccc1 (stereo not given) | -5.0 | 1 | -2 | -21 | -2%
CCOc1ccc(CCNC(=O)CCS(=O)(=O)c2ccc(Br)cc2)cc1OCC | 0.8 | x | -3 | x | x
COc1ccccc1C1CC(c2ccccc2)Nc2ncnn21 (stereo not given) | -6.6 | -15 | x | -60 | 3%
CC(=O)c1cccc(NC(=O)CN2C(=S)NC(C)(C)CC2C)c1 (stereo not given) | 1.1 | 10 | 2 | x | 7%
CCn1cc(C(=O)O)c(=O)c2cc3c(cc21)OCO3 | 1.9 | 4 | -2 | -22 | x
N#Cc1cccc(NC(=O)CNc2cccc(S(=O)(=O)N3CCCCC3)c2)c1 | -4.7 | x | -9 | x | x
C=CCOc1cccc(C2C(C(=O)c3ccc(C)o3)=C(O)C(=O)N2Cc2ccncc2)c1 (stereo not given) | -1.4 | 1 | -3 | -47 | -6%
COc1ccc(C(=O)COC(=O)CCC(=O)c2cccs2)cc1 | 0.7 | -1 | 0 | x | -4%
Cc1cc(C(=O)N/N=C2\CC(=O)c3ccccc32)c(C)n1-c1ccc(F)cc1 | 23 | x | 0 | x | -3%
CCCC(c1nnnn1Cc1cccs1)N1CCN(C)CC1 (stereo not given) | -1.7 | 3 | -3 | x | -1%
Cc1cccc(C)c1OCc1nnc(SCC(=O)Nc2nccs2)o1 | 0.5 | 3 | 5 | -21 | 10% | Arbovirus inh repeat=-3
CCn1c(SCC(=O)Nc2ccc(N(C)C)cc2)nnc1-c1cccc(C)c1 | -3.2 | -8 | 0 | 8 | -2%
O=C(COc1ccc(Br)cc1)NN1C(=O)c2ccccc2C1=O | -1.1 | x | -14 | x | x
Cc1ccc([C@@H]2[C@@H]3C(=O)N(c4ccccc4)C(=O)[C@@H]3[C@]3(C)C(=O)N(Cc4ccc(-c5ccccc5)cc4)CC(=O)N23)o1 | 4.6 | x | -7 | x | x
COc1ccccc1C(=O)NNC(=O)C1CCCO1 (stereo not given) | 0.7 | x | -5 | x | x
Fc1cc2[nH]c(=S)[nH]c2cc1Cl | 0.3 | x | 0 | x | -2%
CCn1c(SCC(=O)c2ccccc2)nc2ccccc2c1=O | 3.7 | 7 | 25 | x | 8%
C#CCOCCOCCOCCNc1nc(N2CCN(C(=O)[C@H]([C@@H](C)CC)n3cc([C@@H](N)CO)nn3)CC2)nc(N2CCN(C(=O)[C@H]([C@@H](C)CC)n3cc([C@@H](N)CO)nn3)CC2)n1 | 0.2 | x | x | x | -7%
CNC(=S)NNC(=O)c1sccc1OCc1cccc(C(F)(F)F)c1 | -0.2 | 3 | -21 | -22 | -8%
Cc1nnc(SCC(=O)Nc2ccc(O)cc2)c2ccccc12 | -1.6 | x | 0 | x | x
Cc1cc(C)c(NC(=S)N2CCCC2C(=O)O)c(C)c1 (stereo not given) | -4.4 | 5 | -2 | -11 | -5%
COC(=O)[C@@H]1C[C@@]2(O)[C@H](O)[C@H](O)[C@H](O)C[C@H]2N1Cc1cc(F)ccc1F | -2.3 | x | -12 | x | -2%
COc1ccc(CCNC(=O)c2ccc3c(c2)N(Cc2ccc(F)cc2)CCS3)c(OC)c1 | -1.8 | x | -8 | x | x

The list continues:
SMILES | RecA splice inh | Arbovirus inh | Mtb betalactam | YopH inh | Mtb H37Rv | others
COC(=O)[C@H](CCSC)NC(=O)N1CCN(Cc2ccccc2)CC1 | -2.6 | 8 | -1 | -42 | -7%
CNC(=O)C(=O)Nc1ccc2c(c1)N(S(=O)(=O)c1cccs1)CCC2 | -3.2 | x | 1 | x | x
CCC(=O)N1c2ccc(S(=O)(=O)N3CCN(c4cc(C)ccc4C)CC3)cc2CC1C (stereo not given) | 2.5 | x | -2 | x | x
CSCCC(NC(=O)c1ccccc1Cl)C(=O)NCCOc1ccccc1 (stereo not given) | 3.5 | x | -13 | x | x
S=C(NCc1ccc(Cl)cc1Cl)Nc1ccccc1 | 6.5 | -36 | 3 | -23 | 8%
CN(c1ccccc1)S(=O)(=O)c1cccc(NC(=O)c2cc(=O)c3ccccc3o2)c1 | 0.7 | -1 | -6 | x | 0%
CCOC(=O)CCC(=O)O[C@H]1[C@H](O[C@@H]2[C@@H](C)[C@H](O[C@H]3C[C@@](C)(OC)[C@@H](O)[C@H](C)O3)[C@@H](C)C(=O)O[C@H](CC)[C@@](C)(O)[C@H](O)[C@@H](C)C(=O)[C@H](C)C[C@@]2(C)O)O[C@H](C)C[C@@H]1N(C)C | -2.6 | 10 | 44 | -19 | 48%
CCc1ccc(N(C(=O)Cc2cccs2)C(C(=O)NC2CCCCC2)c2cn(C)nc2C)cc1 (stereo not given) | 0.2 | -4 | -7 | -25 | -4%
CCOC(=O)Nc1cccnc1Sc1ccc(Cl)cc1 | 3.4 | x | -4 | x | x
COC(=O)c1sccc1NC(=O)c1c(Cl)cccc1Cl | 2.0 | x | -2 | x | x
